TRPV1 PAM: HTS Assay for Compounds that Act as Potentiators of the Vanilloid Receptor 1; AID 540277, 2011; TRPV1-expressing cells, Fluo-8 calcium influx, capsaicin EC20 potentiation; host cell line not named in the record; control for the full effect not named in the record; 320,000 tested, 0.02% active; Transient receptor potential cation channel subfamily V member 1 (Homo sapiens), Q8NER1; potentiation, % at 8.33 µM; active means potentiation above 80%; inconclusive means 30% to 80%; inactive means below 30%; further: 0% is about no effect
Target sequence (Q8NER1 whole entry, looked up): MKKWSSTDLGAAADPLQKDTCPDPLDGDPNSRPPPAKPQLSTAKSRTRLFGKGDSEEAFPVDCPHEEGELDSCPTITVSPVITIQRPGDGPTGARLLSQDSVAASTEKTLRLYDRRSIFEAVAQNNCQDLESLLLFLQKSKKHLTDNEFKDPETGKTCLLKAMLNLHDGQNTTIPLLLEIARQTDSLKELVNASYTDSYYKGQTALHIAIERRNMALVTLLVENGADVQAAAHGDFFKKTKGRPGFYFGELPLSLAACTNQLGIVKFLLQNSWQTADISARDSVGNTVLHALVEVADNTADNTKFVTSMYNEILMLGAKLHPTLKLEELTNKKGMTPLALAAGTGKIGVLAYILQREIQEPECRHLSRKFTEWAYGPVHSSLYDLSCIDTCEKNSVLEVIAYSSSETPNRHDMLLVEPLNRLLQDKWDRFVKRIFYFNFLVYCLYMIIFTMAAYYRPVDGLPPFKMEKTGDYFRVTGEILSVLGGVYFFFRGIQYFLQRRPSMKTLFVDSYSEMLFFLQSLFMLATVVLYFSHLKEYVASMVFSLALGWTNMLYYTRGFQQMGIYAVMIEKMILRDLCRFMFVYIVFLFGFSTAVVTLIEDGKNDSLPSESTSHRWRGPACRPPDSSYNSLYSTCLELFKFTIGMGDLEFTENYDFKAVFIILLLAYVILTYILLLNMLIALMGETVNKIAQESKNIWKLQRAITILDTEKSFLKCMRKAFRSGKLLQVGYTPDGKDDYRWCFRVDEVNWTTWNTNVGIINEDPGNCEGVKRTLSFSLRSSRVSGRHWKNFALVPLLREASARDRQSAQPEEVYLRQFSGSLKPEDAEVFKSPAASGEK
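TRPV1-expressing cells were cultured overnight at 35.5C and loaded with Fluo-8 calcium dye for 40 to 90 min at room temperature. After a 10 s baseline, compound was added and calcium influx was read kinetically for 3 min (ex 480/em 520 nm).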
TRPML1 ag: qHTS for Agonists of the Human Mucolipin Transient Receptor Potential 1 (TRPML1); TRPML1-expressing cells, Ca2+ dye fluorescence, FDSS; host cell line not named in the record; reference of the full effect not given here; activation, % (no concentration beside the values); 410,000 tested, 0.12% active; AID 624414, 2012; in the data active = activation above about 50%; inconclusive = about 30% to 50%; inactive = below about 30%; further: 0% is about no effect; the text of the record puts the active cut at 80%
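Kinetic FDSS Ca2+ read in Tet-induced TRPML1-DL cells (ABD Ca8 dye plus quencher, 45-90 min RT loading): baseline, then compound, then 110 s agonist window; EC80 agonist 54-4 at 4uM final added afterwards for a 110 s antagonist window.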
Sfp PPTase inh: qHTS Assay for Inhibitors of Bacillus subtilis Sfp phosphopantetheinyl transferase (PPTase) | 4'-phosphopantetheinyl transferase ffp (Bacillus subtilis), Q9F4F7 | Biochemical Sfp PPTase activity, qHTS | Potency, µM, without a hit: max response, negative = inhibition, usual class: inhibitors | 310,000 tested, 3.5% active | AID 1490, 2009; active means well fitted inhibition curve with a large enough effect; inconclusive means small, poorly fitted or top-dose-only effect, or another doubt; inactive means no such curve, though single readings can be large or run the other way;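 further: the enzyme is Sfp with the accession as filed and its product quenches rhodamine fluorescence; potency means the concentration at half of the fitted maximal effect; 0% = enzyme reaction without inhibitor and -100% = no enzyme wells; top concentration of the series not given in the record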
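After 15 min at room temperature with compound, 15 nM Sfp received 5 uM rhodamine-CoA plus 12.5 uM BHQ-2-ybbR (50 mM Hepes pH 7.6, 10 mM MgCl2). Rate came from the fluorescence difference over 30 min, ex 525/em 598 nm.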
Menin MLL FP FL: qHTS Assay for Inhibitors Targeting the Menin-MLL Interaction in MLL Related Leukemias: Competition With Fluorescein Labeled MLL-derived Peptide; Fluorescence polarization, fluorescein-MLL peptide displacement from menin; FP activity change, % at 61.4 µM; 290,000 tested, under 10 active; inconclusive = falling polarisation curve, or a change in total fluorescence; inactive = total fluorescence flat and polarisation flat or rising; no compound was filed as active; the % refers to the polarisation; negative = inhibition;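 further: % of control where 0% means no effect; inhibitors lower the polarisation; unlabelled MLL peptide was the positive control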
ClpP mod: qHTS Assay for Activators of ClpP. 340,000 tested, 1.9% active. purified B. subtilis ClpP, FRET peptide cleavage, 20 min. AID 651965, 2013. Potency, µM (titrated, usually from 57.5 µM), for the others: top-dose activity change, negative = active. ATP-dependent Clp protease proteolytic subunit (Bacillus subtilis (strain 168)), P80244; active = well fitted falling curve with a large enough effect; inconclusive = small, poorly fitted or top-dose-only effect; inactive = no such curve, though single readings can be large or run the other way; further: potency means the concentration at half of the fitted maximal effect; the source files actives as falling curves though it sought activators and does not explain the sign; nearly all actives have a fitted effect of over 65% in size; many hits overshoot -100%
Target sequence (P80244 whole entry, looked up): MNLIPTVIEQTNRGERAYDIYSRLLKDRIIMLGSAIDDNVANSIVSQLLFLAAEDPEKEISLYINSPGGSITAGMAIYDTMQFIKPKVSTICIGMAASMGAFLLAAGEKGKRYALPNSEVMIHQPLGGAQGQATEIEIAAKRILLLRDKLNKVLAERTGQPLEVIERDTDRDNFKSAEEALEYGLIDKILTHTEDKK
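Purified B. subtilis ClpP, 10 microg/mL final in Tris/HCl pH8 with KCl, BSA, glycerol and Tween-20, cleaved an Abz/nitrotyrosine-quenched decapeptide. Fluorescence (ex 320, em 430) was read at 0 and 20 min at room temperature. Delta was normalized to 5.8 microM ADEP and DMSO/no-enzyme controls.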
PINK1 expr mod: A Quantitative High throughput Screen to Identify Chemical Modulators of PINK1 Expression. PINK1 immunofluorescence, high-content cytometry, 24 h. 410,000 tested, 0.2% active. Potency, µM (top dose mostly 76.6 µM), without a hit: at the top dose activation (PINK1 increase), most hits filed as activators; active = well fitted activation curve with a large enough effect; inconclusive = small, poorly fitted or top-dose-only effect; inactive = flat fitted curve, though single readings scatter; cell line not stated here;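 further: potency means the concentration at half of the fitted maximal effect; % of control where 0% means no effect; nearly all actives have a fitted effect of over 65% in size; a mitochondrial uncoupler was the plate control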
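Readout is PINK1 immunofluorescence, quantified alongside mitochondrial, cell and nuclear markers by laser-scanning microplate cytometry. Cells from a stable line were exposed to compound titrations (5 concentrations) for 24 hours, with CCCP controls.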
TRPML1 blocker: qHTS for Inhibitors of the Human Mucolipin Transient Receptor Potential 1 (TRPML1); TRPML1-inducible cells, Ca2+ dye fluorescence, FDSS; stronger effect = lower value; inhibition of EC80 agonist-evoked calcium signal; activity change, negative = inhibition, % (concentration not given with the values); 390,000 tested, 0.02% active; AID 624415, 2012; in the data active means activity change below about -50%; inconclusive means about -30% to -50%; inactive means above about -30%;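 further: stimulus is agonist 54-4 at its EC80 concentration; on the % scale 0 is the no-effect control and ±100 the full control effect; compound concentration not given in the record; the text of the record puts the active cut at -80%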
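Calcium fluorescence in TRPML1-DL cells induced overnight with Tet: a 110 s read after compound pin addition, then a 110 s antagonist read after challenge with 54-4 at 4 uM final (EC80).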
Numbers without * were called inactive; ? = inconclusive; . = not tested or not shown; & = joins results of further samples; [ ] = remark or other dose.

SMILES | TRPV1 PAM | TRPML1 ag | Sfp PPTase inh | Menin MLL FP FL | ClpP mod | PINK1 expr mod | TRPML1 blocker
COc1ccc(C)cc1-n1ccn(CC(=O)Nc2ccc(Br)cc2F)c(=O)c1=O | -4 | 0.2 | . | . | 1.1% | 4.5% | -3
CN(CC(=O)Nc1cccc(F)c1)C(=O)c1ccc(OCc2ccccc2)cc1 | -31 | 0.1 | . | . | -1.4% | 9.5% | -2
O=C(Nc1ccccc1)Nc1ccc(F)cc1F | 12 | 0.3 | -2% | 5.0 | 0.1% | 2.0% | -1
O=C(COC(=O)/C=C/c1ccc(F)cc1)Nc1ccc(S(=O)(=O)N2CCOCC2)cc1 | . | 0.3 | . | . | -1.8% | 0.5% | 5
CN(C)CCN(C(=O)c1ccc2ccccc2c1)c1nc2cc3c(cc2s1)OCCO3 | 4 | 0.0 | 79µM* | . | ? | ? | 11
O=C(N/N=C\c1ccccc1OCc1ccccc1)c1ccco1 | -7 | 0.6 | -15% | 4.5 | -3.4% | 9.7% | 15
CN(C(=O)CSc1nnc(-c2cccc(F)c2)n1N)C1CCS(=O)(=O)C1 (configuration not stated) | 5 | -0.8 | -3% | 7.5 | . | -0.7% | 20
CN(C)c1ccc(C(=O)N2CCCC(CCC(=O)N3CCN(c4ccccn4)CC3)C2)cc1 (configuration not stated) | -9 | 0.7 | 9% | . | -18% | -1.8% | 0
O=P(c1ccccc1)(c1ccccc1)c1cc(Br)cc(Br)c1OCCO | -4 | 3.4 | -8% | 4.3 | . | 0.9% | 7
CCOc1ccc(NC(=O)CSc2nc(=O)n(Cc3ccccn3)c3c2CCC3)cc1 | 7 | 2.8 | . | . | -6.2% | -0.4% | 53
CCN(CC)c1ccc(/C=C(\C#N)c2ccccn2)cc1 | -7 | 8.9 | -56% | ? | . | 1.8% | 45
O=c1[nH]c(CSc2nc3ccccc3s2)nc2cc(Cl)ccc12 | 18 | . | -23% | 12 | . | . | .
Cc1ccc(S(=O)(=O)NCCc2nnc(SCc3cccnc3)n2C)cc1 | 6 | 0.2 | 6% | 2.1 | . | 9.2% | -5
COc1ccc(-c2nc3cc(C)ccn3c2NCc2ccc3c(c2)OCO3)cc1 | -16 | -0.1 | ? | -1.5 | 28µM* | 0.7% | 1
CCOc1cc(/C=N/n2cnnc2)ccc1OC(=O)c1cccc([N+](=O)[O-])c1 | 11 | -1.1 | 18% | 6.1 | 0.4% | 1.3% | -1
CCC(=O)c1ccc(OCC(O)CN(CCc2ccccc2)Cc2ccccc2)cc1 (configuration not stated) | 2 | -0.1 | -11% | 4.5 | -0.3% | . | -6
CCC(CC)NC(=O)/C=C/c1ccccc1Cl | -18 | 2.3 | 6% | 2.4 | -4.0% | -0.2% | 8
O=CNc1ccc(/C=C/c2ccnc3ccccc23)cc1 | . | -0.5 | . | . | ? | -1.0% | .
c1ccc(CN2CCN(c3cnc4ccccc4n3)CC2)cc1 | ? | 1.5 | 2% | -12 | -9.5% | -1.0% | 5
Cc1nc(C(F)(F)F)ccc1C(=O)N1CCC1(C)C(=O)NS(=O)(=O)c1cccc(F)c1 (configuration not stated) | . | -0.3 | . | . | -0.6% | 2.6% | .
Cc1ccc(S(=O)(=O)Nc2ccc(Oc3cccnc3)nc2)cc1 | -13 | -0.4 | 18% | 3.0 | -1.4% | -0.9% | -5
COC(=O)Cc1[nH]n(-c2nc3ccccc3s2)c(=O)c1C(C)=O | 8 | 7.0 | 79µM* | 2.3 | 0.7% | 0.6% | -13
CCOc1ccc(C(=O)NCC(=O)NNC(=O)CN(C)S(=O)(=O)c2ccc(Cl)cc2)cc1 | -2 | -0.4 | . | . | -1.6% | 7.4% | -13
Cc1ccc(O)c(NC2=C(Cl)C(=O)N(Cc3ccccc3)C2=O)c1 | 5 | 0.2 | 7.1µM* | -0.3 | 1.0% | 7.1% | 6
CC1Cc2[nH]c(=S)[nH]c(=O)c2C(C(C)C)O1 (configuration not stated) | . | 0.4 | . | . | -0.1% | -0.6% | .
CC1O[C@H](OC2C(COC3OC(CO)C(O)[C@H](O)C3O)OC(OC3CC[C@]4(C)C(CC[C@@]5(C)[C@@H]4C=C[C@]46OC[C@@]7(CCC(C)(C)C[C@H]74)C(O)C[C@@]56C)C3(C)C)C(O)C2O)C(O)C(O)C1O (some centres not stated) | . | -0.2 | . | . | -0.1% | -0.7% | -5
COc1ccccc1CCNC(=O)C(=O)NCC1OCCN1C(=O)c1ccc(Cl)cc1 (configuration not stated) | -3 | 0.7 | 15% | 2.6 | -1.9% | 2.5% | 16
Cc1ccc(-n2nc(C)c(Sc3ccccc3[N+](=O)[O-])c2N)cc1 | -4 | -0.2 | -20% | 4.6 | . | 0.5% | 2
COc1ccc(Nc2nc(C)nc3c2nnn3Cc2ccccc2)cc1OC | 12 | 0.4 | -1% | -1.9 | 60% | 5.2% | -7
Cc1nc(SCC(=O)NCCc2ccccc2)c2oc3ccccc3c2n1 | 2 | 0.9 | -2% | 2.4 | 2.0% | -0.4% | -6
CC(C)(C)c1ccc(SCCc2ccncc2)cc1 | -14 | 0.2 | 2% | -0.8 | 1.1% | 3.5% | -13
CCOC(=O)Cc1csc(SCC(=O)Nc2nccs2)n1 | 3 | -0.6 | . | . | 1.0% | -1.3% | -6
O=C(Nc1ccnn1C1CCN(Cc2ccccc2OCCO)CC1)c1cccc(F)c1 | -21 | -0.2 | 9% | . | 0.2% | -0.3% | -2
CCOc1ccc(Br)cc1S(=O)(=O)Nc1ccc(NC(=O)c2ccccc2C)cc1 | -7 | 0.1 | 6% | 7.8 | 0.2% | -1.3% | 7
CCOC(=O)c1cc(-c2ccc(OC)cc2)n(CCC(=O)NCc2ccccc2OC)c1C | . | 0.7 | . | . | ? | 2.5% | 2
CC(=O)Nc1ccc(NC(=S)NC(=O)/C=C/c2ccc(Cl)cc2)cc1 | 16 | 1.3 | 16% | -2.0 | . | 1.1% | 5
CCNC(=S)N/N=C/c1cn(Cc2ccccc2F)c2ccccc12 | 1 | 2.3 | 10% | -1.7 | -13% | 3.0% | 18
Cc1ccc(NC(=O)CSc2nc(N)cc(=O)[nH]2)cc1S(=O)(=O)N1CCCCC1 | . | 0.5 | . | . | . | 1.1% | 7
COc1ccc(S(=O)(=O)NCCCN2CCCC2=O)cc1OC | -1 | 0.7 | 15% | . | -0.8% | 0.5% | 7
O=C(CC1CC2CCC1C2)NC1CCCCCCC1 (configuration not stated) | -20 | . | 12% | -1.5 | 0.0% | 3.5% | .

Single records (already shown). Order of screens: TRPV1 PAM, TRPML1 ag, Sfp PPTase inh, Menin MLL FP FL, ClpP mod, PINK1 expr mod, TRPML1 blocker
`O=C(Nc1ccnn1C1CCN(Cc2ccccc2OCCO)CC1)c1cccc(F)c1` across the screens: -21, -0.2, 9%, ., 0.2%, -0.3%, -2
`Cc1ccc(NC(=O)CSc2nc(N)cc(=O)[nH]2)cc1S(=O)(=O)N1CCCCC1` across the screens: ., 0.5, ., ., ., 1.1%, 7

Following part
SMILES | TRPV1 PAM | TRPML1 ag | Sfp PPTase inh | Menin MLL FP FL | ClpP mod | PINK1 expr mod | TRPML1 blocker
O=C(O)c1cnc(-c2ccccc2)nc1Sc1ccc(Cl)cc1 | 10 | 1.0 | 16% | -0.2 | 0.9% | -1.7% | -9
O=C(O)c1ccccc1NS(=O)(=O)c1ccc(N/N=C/c2cccc(O)c2O)c([N+](=O)[O-])c1 | . | 0.2 | . | . | -6.6% | 0.9% | 26
CC1CCCN(C(=O)C2COc3ccccc3O2)C1 (configuration not stated) | -7 | -0.5 | 8% | . | -3.4% | 0.0% | 2
CN(C(=O)c1ccc(NC(=O)Cc2ccc(NC(=O)C3CCN(S(=O)(=O)c4cccc([N+](=O)[O-])c4)CC3)cc2)cc1)C1CCCC1 | . | 0.2 | . | . | -2.6% | 0.2% | -3
COc1ccc(NC(=O)C2CCN(C(=O)c3ccccc3)CC2)c(OC)c1 | -2 | 0.4 | 9% | -1.8 | -10% | ? | -15
COc1ccc(-c2cc(C(=O)NCc3cccnc3)no2)cc1 | -26 | 0.8 | 2% | 2.9 | ? | -8.6%[38.3 µM] | -3
CO/N=C(\C)c1ncc(C(F)(F)F)cc1N1CCOCC1 | -9 | 2.5 | 8% | 2.2 | -10% | -0.5% | -6
CC(C)Cc1nc(Cl)c(C#N)c2c1CCC2 | 14 | 1.5 | 5% | 1.4 | 0.4% | -0.1% | 12
CCCn1c(=O)c2ccccc2n2c(SCCOc3ccc(Cl)cc3)nnc12 | 11 | 0.6 | -23% | 0.2 | 0.5% | -3.8%[38.3 µM] | 15
CCOc1ccc(CC(=O)Nc2nnc3n2CCS3)cc1 | . | 1.2 | . | . | -1.5% | -2.9% | -4
Cc1cc(NC(=O)CCNS(=O)(=O)c2cc(Br)cnc2N)ccc1Br | 4 | 0.4 | 9% | 2.4 | -1.1% | 9.3%[38.3 µM] | 7
CCOC(=O)c1ccc(N2CCN(c3ccc(F)cc3)CC2)c(NC(=O)Nc2cccc(OC)c2)c1 | 27 | -0.3&0.7 | 13% | 2.6 | 28µM* | ? | -3&17
COc1ccc(N(CCN2C(=O)c3ccccc3C2=O)C(=O)c2cccc([N+](=O)[O-])c2)cc1 | 0 | 1.9 | 11% | 0.7 | 1.0% | 1.4% | -2
O=C(CN(C(=O)c1csnn1)c1cccc(F)c1)NCc1ccc(F)cc1 | -1 | -0.4 | 22% | 2.5 | -0.2% | -1.0% | 12

Looked up by structure from the list above, 2 records:
SMILES | TRPV1 PAM | TRPML1 ag | Sfp PPTase inh | Menin MLL FP FL | ClpP mod | PINK1 expr mod | TRPML1 blocker
CCCn1c(=O)c2ccccc2n2c(SCCOc3ccc(Cl)cc3)nnc12 | 11 | 0.6 | -23% | 0.2 | 0.5% | -3.8%[38.3 µM] | 15
CCOc1ccc(CC(=O)Nc2nnc3n2CCS3)cc1 | . | 1.2 | . | . | -1.5% | -2.9% | -4

High-throughput results: PubChem BioAssay, National Center for Advancing Translational Sciences (NCATS)
